ugtP null kill – growth inhibition of ugtP-null S. aureus, primary screen, RN4220 ugtP deletion, OD600; 16 h; some inactives read as strong as hits; growth inhibition, % (concentration not given with the values); 330,000 compounds, 0.54% hits; AID 1259309, 2017;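 active = z-score under -3 and OD600 up to 0.15 on both plates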;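 also: plate controls were untreated wells for no effect and antibiotic for full effect; wells of about 80 µL received 100 nL stock; the first replicate is given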
Mtb hypoxia rep – PubChem AID 1159583; M. tuberculosis hypoxia-regulated fluorescent reporter, fluorescence; fluorescence inhibition, % (test concentration not listed); 300,000 compounds, 0.1% hits;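 active = 35 to 45% if threefold the growth effect, above 45% if 1.5-fold the growth effect; inactive = the rest, general growth blockers included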;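 also: wells of about 50 µL received 100 nL stock; 0% = vehicle wells and 100% = reference inhibitor wells; whole bacteria with a GFP reporter of the hypoxia response; strong numbers were not always called active; many hits fall short of the cut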
PrP UTR inh – inhibition of PrP 5' UTR reporter expression | cell-based PrP 5' UTR mRNA reporter, plate reader | inhibition, % (test concentration not listed) | 340,000 compounds, 0.35% hits | AID 488862, 2010;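 active = every replicate at 50% or more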;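 also: 0 = median of the neutral control wells; tested in H4 reporter cells; numbers are from one replicate; inactives centre near -14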
Bead autofluor – compound fluorescence in toxin protease inhibitor counterscreen; AID 624483; 360,000 compounds, 3.1% hits; compound autofluorescence counterscreen, microsphere flow cytometry; active compounds read high; fluorescence intensity (concentration not given with the values);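 active = at least 3 SD above the mean of all compounds, about 16000 in these data; inconclusive = too few beads counted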;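 also: 100 nL of 1 mM stock went into each well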
Sa RN4220 lethal – growth inhibition of S. aureus RN4220, primary screen, OD600 | 16 h | AID 1259311, 2017 | inhibition, % (concentration not given with the values) | 330,000 compounds, 0.33% hits;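 active = z-score of -3 or lower and OD600 up to 0.18 on both plates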;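 also: plate controls were untreated cells for no effect and reference antibiotic for full effect; stock transfer was 100 nL into about 80 µL; one replicate is shown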
BJeLR lethal – MLPCN primary cell-based screen for lethality selective to Ras in HRASV12 cells | BJeLR (HRASV12) viability, CellTiter-Glo ATP luminescence, 48 h; reference of the scale not given here | inhibition, % (test concentration not listed) | 300,000 compounds, 0.17% hits | AID 1554, 2009;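 active = replicate mean above 50%; inconclusive = above 50% but judged a plate artefact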;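 also: 50 nL library stock added to about 25 µL; numbers are from one replicate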
Mtb hypoxia rep growth – further read-out of Mtb hypoxia rep, marked with its call; growth inhibition, %; measured here: M. tuberculosis growth (absorbance);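 0% = vehicle and 100% = reference antibiotic; read after six days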
* = called active by the depositor.

COc1ccc(OC)c(NC(=O)COC(=O)C2CCC2)c1 was read as ugtP null kill 0.9, Mtb hypoxia rep -4.2, PrP UTR inh -0.8, Bead autofluor 3788, Sa RN4220 lethal 1.3 and Mtb hypoxia rep growth 2.0.
For CC(C)c1c(C(=O)N/N=C/c2ccc(-c3ccccc3)cc2)nnn1-c1nonc1N the results were PrP UTR inh -19.1, Bead autofluor 6054 and BJeLR lethal -18.7.
`COc1ccc(N2CCN(CCNC(=O)c3ccc4c(c3)[nH]c(=S)n3c5ccccc5nc43)CC2)cc1` gave ugtP null kill 0.7, Mtb hypoxia rep -0.6, PrP UTR inh 6.5, Bead autofluor 4971, Sa RN4220 lethal -6.1, BJeLR lethal 2.9 and Mtb hypoxia rep growth 10.3.
O=C(COC(=O)CCNS(=O)(=O)c1ccc(Cl)cc1)Nc1ccccc1OC(F)F was read as ugtP null kill 5.7, Mtb hypoxia rep -1.1, PrP UTR inh -32.5, Bead autofluor 5085, Sa RN4220 lethal 5.3 and Mtb hypoxia rep growth -5.4.
CS(=O)(=O)c1ccc2nc(NC(=O)C3CC(=O)N(c4ccc(F)cc4)C3)sc2c1 (centres undefined) was read as ugtP null kill -0.7, Mtb hypoxia rep -5.2, PrP UTR inh 1.6, Bead autofluor 5932, Sa RN4220 lethal -2.1, BJeLR lethal -5.8 and Mtb hypoxia rep growth 12.8.
For COc1ccc(S(=O)(=O)N(CC(=O)N2CCN(c3ccccc3OC)CC2)c2ccccc2)cc1 the results were ugtP null kill -6.4, Mtb hypoxia rep 4.5, PrP UTR inh -15.9, Bead autofluor 5121, Sa RN4220 lethal -3.6 and Mtb hypoxia rep growth 19.4.
Screening Brc1cccc(-c2nc(-c3ccncc3)no2)c1 returned ugtP null kill -5.7, PrP UTR inh -77.3, Bead autofluor 4789, Sa RN4220 lethal 1.1 and BJeLR lethal -1.9.
`O=C(O)CCC(=O)N1N=C(c2ccccc2)CC1c1cccs1` (centres undefined) gave ugtP null kill -0.5, Mtb hypoxia rep -6.3, PrP UTR inh -20.3, Bead autofluor 5234, Sa RN4220 lethal 1.9, BJeLR lethal -10.1 and Mtb hypoxia rep growth -0.3.
Screening COc1cc(OC)cc(C(=O)NCC(=O)Nc2ccc(C)c(Cl)c2)c1 returned ugtP null kill -4.4, Mtb hypoxia rep -2.1, PrP UTR inh -12.7, Bead autofluor 3749, Sa RN4220 lethal -2.2, BJeLR lethal -9.8 and Mtb hypoxia rep growth 3.2.
`COc1ccc(/C(N)=N/OC(=O)c2ccc(C)c([N+](=O)[O-])c2)cc1` gave PrP UTR inh -83.8, Bead autofluor 2909 and BJeLR lethal 6.6.
Screening COc1ccc(-c2c(C3C4C=CCC(C)C4C(=O)N3Cc3ccccc3)ccc3ccccc23)cc1 (centres undefined) returned ugtP null kill -0.6, Mtb hypoxia rep 4.1, Sa RN4220 lethal -11.7 and Mtb hypoxia rep growth 8.2.
`COc1cc(OC)c(C(=O)Nc2cccnc2)cc1OC` gave ugtP null kill 5.3, Mtb hypoxia rep 0.9, PrP UTR inh -20.8, Bead autofluor 3879, Sa RN4220 lethal 0.4, BJeLR lethal 2.8 and Mtb hypoxia rep growth -1.1.
CCCn1c(=N)n(CC(O)COc2ccc(C)cc2)c2ccccc21 (centres undefined) was read as ugtP null kill -3.7, Mtb hypoxia rep 5.3, PrP UTR inh -22.1, Bead autofluor 4068, Sa RN4220 lethal 1.4, BJeLR lethal 17.4 and Mtb hypoxia rep growth -3.0.
`O=C(COC(=O)c1cc([N+](=O)[O-])ccc1NCCO)c1ccccc1` gave ugtP null kill 2.1, Mtb hypoxia rep 7.2, PrP UTR inh -3.2, Bead autofluor 10004, Sa RN4220 lethal 8.3, BJeLR lethal -13.3 and Mtb hypoxia rep growth 4.0.
For Cc1cc(C)nc(/N=C(/NC(=O)c2ccccc2)Nc2ccccc2)n1 the results were PrP UTR inh -0.9, Bead autofluor 2339 and BJeLR lethal -5.4.
For COc1cnc(-c2ccccn2)nc1Sc1ccc(Cl)cc1 the results were ugtP null kill 2.3, Mtb hypoxia rep 10.8, PrP UTR inh -11.5, Bead autofluor 21806*, Sa RN4220 lethal 4.5, BJeLR lethal -10.5 and Mtb hypoxia rep growth 18.1.
Screening Cc1ccc(Cl)cc1NS(=O)(=O)Cc1ccccc1 returned ugtP null kill -8.1, Mtb hypoxia rep -3.4, PrP UTR inh -1.4, Bead autofluor 3622, Sa RN4220 lethal -0.5, BJeLR lethal -4.4 and Mtb hypoxia rep growth -2.5.
`CCN1CCN(CC(=O)Nc2c(OC)cccc2OC)CC1` gave ugtP null kill 15.1, Mtb hypoxia rep 2.4, PrP UTR inh -4.5, Bead autofluor 3828, Sa RN4220 lethal -1.4, BJeLR lethal -0.9 and Mtb hypoxia rep growth 6.6.
For COCCNC(=O)C(=O)NNS(=O)(=O)c1ccc2ccccc2c1 the results were ugtP null kill 8.0, Mtb hypoxia rep 11.7, PrP UTR inh -6.0, Bead autofluor 5028, Sa RN4220 lethal 5.5, BJeLR lethal -0.8 and Mtb hypoxia rep growth 5.9.
CC(/C=N/NC(=O)c1cc(C(C)C)[nH]n1)=C\c1ccccc1 was read as PrP UTR inh -14.4, Bead autofluor 2059 and BJeLR lethal -2.1.
COc1ccc(NC(=O)CN(C)C(=O)CCNS(=O)(=O)c2ccc(Br)cc2)cc1 was read as ugtP null kill 5.3, Mtb hypoxia rep 6.8, PrP UTR inh -17.0, Bead autofluor 5909, Sa RN4220 lethal 4.8, BJeLR lethal 9.6 and Mtb hypoxia rep growth 5.9.
For Cc1ccc(C(=O)Nc2ncccc2C)cc1S(=O)(=O)N1CCOCC1 the results were ugtP null kill 3.7, Mtb hypoxia rep 1.4, PrP UTR inh -15.6, Bead autofluor 5277, Sa RN4220 lethal 1.4 and Mtb hypoxia rep growth 4.2.
CCc1ccc(C(=O)NC(C(=O)NCC2CCCO2)C(C)C)cc1 (centres undefined) was read as PrP UTR inh -7.9, Bead autofluor 4509 and BJeLR lethal 7.7.
O=C(CCCCn1c(=O)c2ccccc2n(CC(=O)NC2CCCC2)c1=O)NCc1ccco1 was read as ugtP null kill 4.6, PrP UTR inh 6.4, Bead autofluor 2709, Sa RN4220 lethal 1.8 and BJeLR lethal 6.5.
For CC(=O)NC(=S)Nc1ccc(NC(=O)COc2ccc(Cl)cc2)cc1 the results were ugtP null kill -4.5, Mtb hypoxia rep 12.7, PrP UTR inh -17.0, Bead autofluor 8062, Sa RN4220 lethal 6.6, BJeLR lethal -12.0 and Mtb hypoxia rep growth 9.7.
Screening Cc1cc(C)n(CCN(C)C(=O)CCc2nnc(-c3ccc4c(c3)OCO4)o2)n1 returned ugtP null kill 5.0, Mtb hypoxia rep 3.3, PrP UTR inh -31.3, Bead autofluor 4830, Sa RN4220 lethal 4.8, BJeLR lethal -3.4 and Mtb hypoxia rep growth 1.5.
`CC(Oc1ccccc1F)C(=O)NNC(=O)CC(C)c1ccccc1` (centres undefined) gave ugtP null kill 17.7, Mtb hypoxia rep 12.4, PrP UTR inh -22.1, Bead autofluor 5900, Sa RN4220 lethal 6.9, BJeLR lethal 9.3 and Mtb hypoxia rep growth -5.5.
For O=C(CCCNC(=O)/C(=C\c1ccc(F)cc1)NC(=O)c1ccccc1)OCc1ccccc1 the results were PrP UTR inh -2.1, Bead autofluor 2463 and BJeLR lethal -13.9.
For COC1=CC2[C@@H]3Cc4ccc(OC)c(O)c4[C@]2(CCN3C)CC1=O (some centres undefined) the results were ugtP null kill 13.4, Mtb hypoxia rep -3.6, PrP UTR inh -11.5, Bead autofluor 2864, Sa RN4220 lethal 6.5 and Mtb hypoxia rep growth -1.7.
Screening O=c1cc(CN2CCN(c3ccccc3F)CC2)c2cc(O)c(-c3ccccc3)cc2o1 returned ugtP null kill 4.2, Mtb hypoxia rep 12.8, PrP UTR inh -11.4, Bead autofluor 9401, Sa RN4220 lethal 0.2, BJeLR lethal -4.9 and Mtb hypoxia rep growth -1.8.
`CC(C)C(C)NC(=O)CSc1ccc(S(=O)(=O)N2CCOCC2)cn1` (centres undefined) gave ugtP null kill 12.2, Mtb hypoxia rep 2.7, PrP UTR inh -17.0, Bead autofluor 2832, Sa RN4220 lethal 7.0 and Mtb hypoxia rep growth -4.6.
`O=C(N=C1SC2CS(=O)(=O)CC2N1c1ccc(F)c(Cl)c1)C1CC1` (centres undefined) gave ugtP null kill 4.8, Mtb hypoxia rep 2.4, PrP UTR inh -8.2, Bead autofluor 5522, Sa RN4220 lethal 0.9, BJeLR lethal -0.3 and Mtb hypoxia rep growth -11.0.
Screening NC(=NOC(=O)Cc1ccccc1[N+](=O)[O-])c1cccc(Br)c1 returned ugtP null kill 2.3, Mtb hypoxia rep 12.8, Sa RN4220 lethal 3.2 and Mtb hypoxia rep growth 1.6.
CCOC(=O)C1CCCN(C(=O)c2cc3c(-c4cccc(OC)c4)nn(C)c3s2)C1 (centres undefined) was read as ugtP null kill -19.0, PrP UTR inh -14.9, Bead autofluor 4814, Sa RN4220 lethal 0.3 and BJeLR lethal -0.5.
For CC(C)C(=O)OC1CCS(=O)(=O)c2sccc21 (centres undefined) the results were ugtP null kill 0.8, Mtb hypoxia rep 3.1, PrP UTR inh -13.3, Bead autofluor 4197, Sa RN4220 lethal 7.7, BJeLR lethal -0.7 and Mtb hypoxia rep growth 4.2.
Screening CCOc1cc(C(=O)NC(=S)Nc2nc(C)cc(C)n2)cc(OCC)c1OCC returned ugtP null kill 10.5, Mtb hypoxia rep 11.0, PrP UTR inh -6.3, Bead autofluor 3880, Sa RN4220 lethal 3.7, BJeLR lethal 0.7 and Mtb hypoxia rep growth 5.1.
`Nc1nnnn1N=Cc1ccccc1` gave ugtP null kill -4.2, Mtb hypoxia rep -7.2, Sa RN4220 lethal -2.6 and Mtb hypoxia rep growth -7.8.
COc1ccccc1/C=C/C=NNC(=O)c1ccc(=O)n(C)c1 was read as ugtP null kill -0.1, Mtb hypoxia rep 2.5, Sa RN4220 lethal -0.4 and Mtb hypoxia rep growth 3.0.
Screening COc1ccc(N(CC(=O)NCCSCc2ccco2)S(=O)(=O)c2ccc(C)cc2)cc1 returned ugtP null kill 11.9, Mtb hypoxia rep 1.4, PrP UTR inh -132.3, Bead autofluor 4323, Sa RN4220 lethal 2.6 and Mtb hypoxia rep growth 10.3.
CC(=O)Nc1ccc(S(=O)(=O)NC(C(=O)O)C(C)O)cc1 (centres undefined) was read as ugtP null kill 6.8, Mtb hypoxia rep 3.7, PrP UTR inh -10.3, Bead autofluor 3685, Sa RN4220 lethal 2.6, BJeLR lethal 1.4 and Mtb hypoxia rep growth 1.5.
For CC1CCN(C2(O)C(=O)Nc3ccc([N+](=O)[O-])cc32)CC1 (centres undefined) the results were ugtP null kill 2.0, PrP UTR inh 3.8, Bead autofluor 2010, Sa RN4220 lethal 4.5 and BJeLR lethal -4.4.
`CN1CC(=O)N(CC(=O)Nc2ccc(N(C)C)cc2)c2ccccc2C1=O` gave ugtP null kill 2.6, PrP UTR inh -22.0, Bead autofluor 2971, Sa RN4220 lethal -0.2 and BJeLR lethal 6.2.
`Cc1ccc(CSCC(=O)N(CCC(C)C)c2c(N)n(Cc3ccccc3)c(=O)[nH]c2=O)cc1` gave ugtP null kill 6.5, Mtb hypoxia rep -5.9, PrP UTR inh -15.6, Bead autofluor inconclusive, Sa RN4220 lethal -1.1, BJeLR lethal 1.2 and Mtb hypoxia rep growth 4.4.
For c1ccc2oc(-c3ccc(Nc4nc(N5CCCC5)nc(N5CCOCC5)n4)cc3)nc2c1 the results were ugtP null kill 22.9, Mtb hypoxia rep 0.1, Sa RN4220 lethal 3.8, BJeLR lethal 5.4 and Mtb hypoxia rep growth -8.9.
`Cc1ccc(-n2nc3c(n2)C(=NO)CCC3=NO)cc1` gave ugtP null kill 8.1, Mtb hypoxia rep 3.2, Sa RN4220 lethal 3.0 and Mtb hypoxia rep growth 1.1.
Screening C=CCn1c(SCc2c(C(=O)OC)sc(N)c2C(=O)OC)nnc1-c1ccc(Cl)cc1 returned ugtP null kill -3.2, Mtb hypoxia rep -0.5, PrP UTR inh -25.4, Bead autofluor 3122, Sa RN4220 lethal 4.0, BJeLR lethal -6.9 and Mtb hypoxia rep growth 17.5.

Screening data (PubChem BioAssay)
